HPGD block = HPGD (human) dehydrogenase inhibition; 150,000 tested, 4.3% active; AID 894; purified HPGD, NADH fluorescence kinetic, PGE2 substrate; Potency, µM, without a hit: at the highest dose activity change, negative = inhibition, hits mostly inhibitors; P15428; active = well fitted inhibition curve with a large enough effect (not every such curve was filed as active); inconclusive = small, poorly fitted or top-dose-only effect, or another doubt; inactive = no such curve, though single readings can be large or run the other way;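 note: top concentration of the series not given in the record; plate controls included wells without enzyme; inactives centre near -10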
Target sequence (P15428 whole entry, looked up): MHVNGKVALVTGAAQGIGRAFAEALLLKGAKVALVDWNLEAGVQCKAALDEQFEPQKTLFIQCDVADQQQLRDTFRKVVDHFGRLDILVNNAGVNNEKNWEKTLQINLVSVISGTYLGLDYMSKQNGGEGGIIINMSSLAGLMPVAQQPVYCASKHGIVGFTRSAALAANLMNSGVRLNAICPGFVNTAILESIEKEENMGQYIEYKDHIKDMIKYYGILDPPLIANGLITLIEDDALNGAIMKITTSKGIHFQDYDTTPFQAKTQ
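NADH formation kinetics: reaction with 30 uM PGE2 and 1 mM NAD+ (final), 20 nM enzyme, Tris-HCl pH 8 with Tween 20, after 15 min compound preincubation at room temperature. Fluorescence change, last versus first of five reads.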
Active calls of the source: *; ? = inconclusive; & = joins results of further samples. % is set by controls: 0 for no effect and ±100 for the full control effect; potency is the fitted concentration of half-maximal effect.

SMILES	HPGD block
COc1cc(C2Nc3ccccc3C(=O)N2c2ccccc2)c(Br)cc1OCC(=O)O (stereo not given)	?
Cc1ccc(-n2c(SCC(=O)Nc3ccc4c5c(cccc35)CC4)nc(O)c(C)c2=O)cc1	-6%
Cc1oc2c(c1C(=O)NCCCC(=O)O)CCCC2	-17%
O=C(CCCC(=O)OCC(=O)c1ccc(F)cc1)Nc1cc(C(F)(F)F)ccc1Cl	-13%
c1ccc2cc3[nH]c(CN4CCCCC4)nc3cc2c1	?
COc1ccc(CCNc2oc(-c3ccccc3OC)nc2C#N)cc1	?
O=C(Nc1nccs1)C1CCCN(S(=O)(=O)c2cccc3cccnc23)C1 (stereo not given)	-13%
CCOC(=O)c1cccc(NC(=O)/C=C/c2ccc3c(c2)OCO3)c1	-19%
CC1(OC(=O)CCc2ccccc2)C(=O)C=C2C=C(c3ccsc3)OC=C2C1=O (stereo not given)	-1%
CCOC(=O)N1CCN(c2c(N3CCN(c4cc(C)ccc4C)CC3)c(=O)c2=O)CC1	-5%
CCOC(=O)c1sc2cccc(F)c2c1N	?
COc1cc(-c2nnc(-c3ccc(N4CCOCC4)cc3)o2)cc(OC)c1OC	?
OCCN1CCN(CC#CCn2c3ccccc3c3ccccc32)CC1	-16%
C=C(C)CN(CC)CCC(=O)Nc1ccc(OC)cc1OC	-7%
CCN(C1CCCCC1)S(=O)(=O)c1ccc(S(=O)(=O)NCc2ccncc2)cc1	-12%
COc1ccc(C2C(C(=O)Nc3cc(C)on3)c3ccccc3C(=O)N2C)cc1 (stereo not given)	-8%
C=CCNC(=O)NC(=O)COC(=O)CC(NC(N)=O)c1ccc(Cl)cc1 (stereo not given)	-3%
O=c1oc2ccccc2c2nccnc12	-9%
COc1ccc(C2Oc3ccccc3C3=C2C(c2cccs2)n2ncnc2N3)cc1 (stereo not given)	-27%
CCOc1ccccc1NC(=O)N1CCCC1C(=O)Nc1ccc(NC(C)=O)cc1 (stereo not given)	-2%
COc1ccc(NS(=O)(=O)c2ccc(NC(=O)c3cnn4c(C(F)F)cc(-c5ccc(C)cc5)nc34)cc2)cc1	-19%
COCCNC(=O)c1cc(-c2cccnc2)nc2ccc(Br)cc12	-15%
Cn1c(=O)c2[nH]c(SCCN3CCOCC3)nc2n(C)c1=S	5.6µM*
Cc1ccnc(NC(=O)CCC(=O)N(CC(=O)NCc2ccccc2)c2ccc3c(c2)OCO3)c1	-17%
O=C(O)CCCc1nc(-c2ccccc2)no1	-14%
Cc1ccccc1C(=O)N1CCN(c2ccccn2)CC1	-28%
CC(C)C[C@@H](CC(=O)N[C@H](CC(=O)N[C@@H]1CCCC[C@H]1C(=O)N[C@H](CC(=O)N[C@@H](CCC(=O)O)CC(=O)O)Cc1c[nH]c2ccccc12)C(C)C)NC(=O)[C@@H]1CNCC[C@H]1N	-7%
O=c1cc(O)nc(SCc2ccc(Cl)cc2)[nH]1	-11%
Cn1c(=O)c2c(nc(NCCc3ccccc3)n2Cc2ccc(F)cc2)n(C)c1=O	-20%
CC(NC(=O)Cn1c(=O)[nH]c2ccsc2c1=O)C12CC3CC(CC(C3)C1)C2 (stereo not given)	-1%
CC(C)(C)c1cnnn1-c1ccc(-c2csc(N)n2)cc1	-28%
CS(=O)(=O)N(CC(=O)NCc1ccncc1)Cc1ccc(Cl)cc1	-9%
CCn1c(SCC(=O)Nc2cccc(NC(=O)c3ccco3)c2)nnc1-c1cccs1	-10%
O=Cc1ccc(Oc2cc(-c3ccccc3)nc(-c3ccccc3)n2)cc1	-7%
CC(NC(=O)COC(=O)/C=C/c1ccc([N+](=O)[O-])cc1)c1ccccc1 (stereo not given)	-6%
CC1=C(C(=O)Nc2ccccc2)C2(CCCCC2)C(C#N)=C(S)N1	25µM*
CC(C)c1cccc(C(C)C)c1OCCCCN1CCCC1	-8%
CCOC(=O)N/N=C/c1c(C)nn(-c2ccccc2Cl)c1Cl	?
CC(C)C(=O)NC(=S)N(Cc1ccccc1)Cc1ccccc1	-13%
O=C(NCCCn1ccnc1)c1cc2nc(-c3ccc(Br)cc3)cc(C(F)(F)F)n2n1	-15%
O=C(CN(c1ccc(F)cc1)S(=O)(=O)c1ccc2c(c1)OCCO2)Nc1ccc2c(c1)OCO2	-7%
COc1ccc(-c2nc(-n3c(C)c(C(C)=O)c(C(C)=O)c3C)sc2C)cc1	-17%
Nc1ccc(C(=O)OC2CCOC2=O)cc1[N+](=O)[O-] (stereo not given)	-3%
Nc1n[nH]c(-c2cccc([N+](=O)[O-])c2)n1	3%
c1ccc(-c2nnn(C34CC5CC(CC(C5)C3)C4)n2)cc1	-5%
COc1ccc(NC(=O)CSc2nnc(-c3ccccn3)n2-c2ccccc2)cc1OC	-2%
CCn1cnc2cc(NC(=O)c3ccco3)ccc21	-11%
CC12CC3CC(C)(C1)CC(C(=O)NC(=S)N1CCOCC1)(C3)C2	4%
CS(=O)(=O)c1ccc2nc(NC(=O)c3cc(-c4ccccc4)nn3-c3ccccc3)sc2c1	?
COc1cc(NC(=O)Cc2cccs2)ccc1-n1cnnn1	-12%

Remaining list, next part.
SMILES	HPGD block
O=C1CCCN1CN(C(=O)c1ccccc1)c1ccc(F)cc1	-5%
O=C(Cn1ncc2c1-c1ccccc1OC2)Nc1nc2ccccc2s1	-19%
CC(=O)N1c2ccccc2Nc2ccccc21	-1%
CC(C)(C)C(=O)CN1C(=O)C2(OCCO2)c2ccccc21	3%
CN(C)C=Nc1nonc1N	-11%
CCOc1cc(C2NC(=O)NC(O)(C(F)(F)F)C2C(=O)c2ccc(OC)cc2)ccc1O (stereo not given)	-12%
Cc1cc(N2CCCCC2)nc(N)n1	-3%
CC1(C)CC(=S)Nc2ccccc2S1	16µM*
O=C(c1cc(C(F)(F)F)cc(C(F)(F)F)c1)N1CCC[C@@]2(CCN(Cc3nccs3)C2)C1	1%
C1=C(c2ccccc2)Nc2nnnn2C1c1cccs1 (stereo not given)	1%
COc1ccc(CCNS(=O)(=O)c2ccc3oc(C(=O)O)c(C)c3c2)cc1OC	1%
CC1CCN(CCc2nc3cc(NC(=O)NC4CCCCC4)ccc3n2C)CC1	-10%
Cc1ccc(NC(=O)c2noc3c2CCCCC3)cc1	-19%
OCCN1CCN(CC(O)COCCOc2ccc(Br)cc2)CC1 (stereo not given)	-9%
O=C(O)c1ccc(B(O)O)cc1	-5%
OCC#CCSc1nnc(-c2ccncc2)o1	-16%
CCCCCCSC1=C(C#N)C(c2ccc(O)cc2)CC(=O)N1 (stereo not given)	-7%
CCCN1CCN(CCCNC(=O)CCNC(=O)Cn2ccc3ccccc3c2=O)CC1	-12%
O=C(c1ccc(-n2cnnn2)cc1)N1CCOCC1	-24%
Cc1ccc(S(=O)(=O)NCC(=O)NCc2ccncc2)cc1	-3%

Reformatted comma-delimited: two of the compounds above.
Molecule,HPGD block
COCCNC(=O)c1cc(-c2cccnc2)nc2ccc(Br)cc12,-15%
Cn1c(=O)c2[nH]c(SCCN3CCOCC3)nc2n(C)c1=S,5.6µM*

More results follow:
SMILES	HPGD block
O=C(CSc1nnc(-c2ccc(O)cc2)n1-c1ccccc1)CC(=O)Nc1ccccc1	-19%
O=C(C1CCCN(S(=O)(=O)Cc2ccccc2)C1)N1CCc2ccccc21 (stereo not given)	-2%
O=C(/C=C\c1ccc(O)c(O)c1)O[C@@H]1C[C@](O)(C(=O)O)C[C@@H](O)[C@@H]1O	-1%
NC(=O)c1cccnc1	2%&-6%
COCCCNC(=O)c1ccc([N+](=O)[O-])c(Cl)c1	-15%
CCC(C)(C)C(=O)OC1CC(C)C=C2C=CC(C)C(CCC3CC(O)CC(=O)O3)C21 (stereo not given)	-22%
O=c1[nH]c(=O)n([C@@H]2O[C@H](CO)[C@@H](O)[C@H]2O)cc1Br	-7%
NC(=O)c1ccccc1NC(=O)/C=C/c1cccc(Cl)c1	-6%
Cc1ccc(NC(=O)C2CCCN(c3ncccn3)C2)cc1F (stereo not given)	-14%
CCN(CC(=O)Nc1cccc(C(C)=O)c1)S(=O)(=O)c1ccc(OC)cc1	-14%
COc1ccc(OC(C)=O)c(C2c3cc(OC)c(OC)cc3CCN2C(C)=O)c1 (stereo not given)	-2%
CC(C)=C1SC(N2CCCCC2)=NC1=O	-9%
COc1ccc(N(CC(=O)NCCC2=CCCCC2)S(C)(=O)=O)cc1	3%
Cc1cc(Br)ccc1NC(=O)CN1C(=O)C2C3CC(c4ccccc4)C(C3)C2C1=O (stereo not given)	-7%
COc1ccc(N(C(=O)c2cccnc2)S(=O)(=O)c2ccc3c4c(cccc24)C(=O)N3C)cc1	?
CCCOC(=O)c1cccc(Nc2nc(-c3cccnc3)nc3ccccc23)c1	-25%
CN1CCC(=NNC(=O)c2ccco2)CC1	-13%
CCOc1ccc2nc(SC(CC)C(=O)Nc3cc(C)on3)sc2c1 (stereo not given)	0%
O=C(Nc1ccccc1C(=O)N1CCOCC1)c1ccco1	-2%
COc1ccc(CN(CC2CCCO2)S(=O)(=O)c2ccc(C(=O)O)cc2)cc1OC (stereo not given)	-8%

Part of the list above, with values ahead of the structure:
HPGD block | canonical_smiles
-7% | Cc1cc(Br)ccc1NC(=O)CN1C(=O)C2C3CC(c4ccccc4)C(C3)C2C1=O (stereo not given)
-2% | O=C(Nc1ccccc1C(=O)N1CCOCC1)c1ccco1
3% | COc1ccc(N(CC(=O)NCCC2=CCCCC2)S(C)(=O)=O)cc1
-2% | COc1ccc(OC(C)=O)c(C2c3cc(OC)c(OC)cc3CCN2C(C)=O)c1 (stereo not given)
-8% | COc1ccc(CN(CC2CCCO2)S(=O)(=O)c2ccc(C(=O)O)cc2)cc1OC (stereo not given)
0% | CCOc1ccc2nc(SC(CC)C(=O)Nc3cc(C)on3)sc2c1 (stereo not given)
-9% | CC(C)=C1SC(N2CCCCC2)=NC1=O

Next part:
SMILES	HPGD block
NS(=O)(=O)c1ccc(N=Nc2ncccc2O)cc1	-13%
Cn1c(=O)oc2cc(S(=O)(=O)N3CCC(C(=O)Nc4ccc(OC(F)(F)F)cc4)CC3)ccc21	5%
Cc1onc(-c2c(Cl)cccc2Cl)c1C(N)=O	0%
Cn1c(=O)c2c(-c3ccccc3)n(Cc3cccnc3)cc2n(C)c1=O	-23%
Cn1c(Cc2cccs2)n[nH]c1=S	-8%
O=C(O)c1ccc2c3c1cccc3c(=O)n1c3ccccc3nc21	-7%
Cc1cc(C)nc(SCCS(=O)Cc2ccc(Cl)cc2)n1 (stereo not given)	-7%
COC(C)=O	-2%
CCCN1CNC(=S)N(c2ccccc2OCC)C1	1%
Cc1ccc(C(=O)Cn2cnc3ccccc3c2=O)cc1C	-24%

Laid out differently: two of the compounds above.
compound | HPGD block
O=C(O)c1ccc2c3c1cccc3c(=O)n1c3ccccc3nc21 | -7%
Cc1cc(C)nc(SCCS(=O)Cc2ccc(Cl)cc2)n1 (stereo not given) | -7%

Next compounds follow:
SMILES	HPGD block
O=C(NCCC1=CCCCC1)NC12CC3CC(CC(C3)C1)C2	-6%
Cc1[nH]nc(N2CCCCCC2)c1[N+](=O)[O-]	-9%
COC(=O)[C@H](Cc1ccccc1)NC(=O)O[C@@H]1C(=O)c2cc(OC)ccc2O[C@H]1c1cccc(OC)c1	-20%
O=C(NN1C(=O)c2ccccc2NC1c1ccccn1)c1ccc([N+](=O)[O-])cc1 (stereo not given)	-12%
CCOC(=O)c1c(C)n(-c2ccc(C)cc2)c2c(CC(C)=O)c(Br)c(OC)c(O)c12	-4%
Cn1c(=O)[nH]c(=O)c2c1nc(CN(Cc1ccccc1)Cc1ccccc1)n2CCN1CCOCC1	-2%
CC1=C(C(N)=O)C(c2cccs2)n2nc(-c3cccc(Cl)c3)nc2N1 (stereo not given)	-15%
Cc1cc2c3c(c1)C1(C(=O)N3C(C)(C)CC2C)C(C#N)=C(N)Oc2cc(O)ccc21 (stereo not given)	2%
Cc1cccc(CS(=O)(=O)Cc2ccc(C(=O)NCCCN3CCOCC3)o2)c1	-11%
CCOCc1cc(C)[nH]c(=O)c1C#N	?
COc1ccc(/C=C2\CCOC2=O)cc1	-16%
O=C(CCn1c(=O)oc2ccccc21)N1CCN(C(c2ccccc2)c2ccccc2)CC1	-19%
O=C(NC(Cc1ccccc1)C(=O)O)OCc1ccccc1 (stereo not given)	0%
Cc1nn(-c2ccccc2)c(Cl)c1CN(C(=O)CCl)c1ccc(Cl)cc1	-22%
Cc1cc(C(=O)NCc2ccc3c(c2)OCO3)n(-c2ccccc2)n1	-2%
O=C(CNS(=O)(=O)c1ccccc1)OCc1cccc([N+](=O)[O-])c1	-19%
CCN(CC)c1ccc(/C=N/NC(=O)c2cccc(S(=O)(=O)N3CCOCC3)c2)cc1	?
Cc1ccc(OCC(=O)N2N=C(c3cccnc3)CC2(O)C(F)(F)F)cc1C (stereo not given)	-29%
CCN(CC)S(=O)(=O)c1ccc2oc(SCc3ccc(F)cc3)nc2c1	-16%
COc1ccc(NC(=O)N2CCC3(CC2)CCN(C(=O)c2cc(C(F)(F)F)cc(C(F)(F)F)c2)CC3)cc1	-5%
O=C(CC(=O)Nc1cccc(Cl)c1)N/N=C\c1ccccc1	0%
Cc1oc(-c2ccccc2F)nc1CS(=O)(=O)CC(=O)NCc1ccco1	-10%
COc1ccc(NS(=O)(=O)c2ccc(N3CCCC3)c(NC(=S)Nc3cccc(S(=O)(=O)N(C)C)c3)c2)cc1	3.2µM*

Source: PubChem

An excerpt; count on the stated rates, not on these rows.
